VACV E9 pol inh = blocks vaccinia virus processive DNA synthesis; in vitro processive DNA synthesis, absorbance read-out; hits give low values; some inactives read as strong as hits; normalized absorbance, % (test concentration not listed); actives 0.94% (n = 46,000);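 active means replicate mean up to 90% and picked by the depositor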;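 further: 100% = median of the test wells of a plate; 100 nL library stock went into each well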
* hit, by the source's call. Not all compounds are listed; rates above refer to the full screens.

SMILES | VACV E9 pol inh
O=C(COC(=O)C12CC3CC(CC(C3)C1)C2)c1ccc(F)cc1 | 110
CC1(C)CC(=O)c2sc(NC(=O)/C=C/c3ccccc3)nc2C1 | 83
Cc1c(N2CCCC2)cc2c(c1-n1cccc1)C(C)(C)CC2(C)C | 97
CN(C)CN1C(=O)c2ccccc2C1=O | 96
COc1cc(Cl)c(C)cc1NC(=O)c1cnc(C)cn1 | 106
Cc1ccc(C)c(NC(=O)C(C)n2sc3ccccc3c2=O)c1 (stereo unspecified) | 100
N=c1oc2ccc3ccccc3c2cc1C(=O)Nc1ccccc1 | 100
Cc1ccc2c(c1)c1c3n2CCN(C2CCO2)C3CCC1 (stereo unspecified) | 101
O=C(NC(=S)n1nnc2ccccc21)c1ccccc1 | 109
c1ccc(OC2CN(C(c3ccccc3)c3ccccc3)C2)cc1 | 100
CCOC(=O)c1cnc(Nc2nc3ccccc3s2)nc1CSc1ncccn1 | 103
Cc1ccc(S(=O)(=O)CC(SC#N)c2ccccc2)cc1 (stereo unspecified) | 99
CN(/N=C/c1ncc(C(F)(F)F)cc1Cl)C(=O)c1ccc(Cl)cc1 | 87
NS(=O)(=O)c1ccc2nc(NC(=O)C3CCCCC3)sc2c1 | 99
CCc1cc(=O)[nH]c(SCc2ccc(C)cc2)n1 | 89
O=C1C2C(c3ccccc3)C=CC(c3ccccc3)C2C(=O)N1c1nccs1 (stereo unspecified) | 100
Oc1c(C(Nc2nccs2)c2ccc(F)cc2)ccc2cccnc12 (stereo unspecified) | 92
O=C(Oc1ccccc1)Oc1ccc2ccc(=O)oc2c1 | 100
CCc1ccc(NC2=CC(=O)CC(c3ccco3)C2)cc1 (stereo unspecified) | 100
CN(C(=O)COC(=O)C1(c2ccc(F)cc2)CCCC1)c1ccccc1 | 92
O=C(C1CC1)N1CCc2cc(S(=O)(=O)NCc3ccccc3)ccc21 | 100
Cc1ccc(-n2ncc3c(=O)[nH]c(SCC(=O)Nc4ccccc4C(F)(F)F)nc32)cc1 | 87
CCC1CCCCN1C(=O)CSCc1ccc(Cl)cc1 (stereo unspecified) | 87
N/C(=N\S(=O)(=O)c1ccc(Cl)c(Cl)c1)c1ccccn1 | 100
CC(=O)N1CCc2cc(S(=O)(=O)CCC(=O)N3CCCC3)ccc21 | 86
O=C(Cc1ccccc1)NCCO | 104
COC(=O)CC1=C(C(=O)OC)C2(C(=O)Nc3ccccc32)C(C#N)=C(N)O1 (stereo unspecified) | 107
Nc1ccn([C@H]2CC[C@@H](CO)O2)c(=O)n1 | 100
COC(=O)CCn1nc(-c2ccc(C)cc2)c2ccccc2c1=O | 101
CCSC1=C(C#N)C(=O)NC(CO)S1 (stereo unspecified) | 96
COc1ccccc1CNC(=O)COC(=O)Cc1ccc(Br)cc1 | 102
CCC(CO)NC(=S)Nc1ccccc1C (stereo unspecified) | 100
Cc1ccc(C(=O)C(OC(=O)c2c(C)cc(=O)oc2C)c2ccccc2)cc1 (stereo unspecified) | 100
COCCN1C(=O)c2ccccc2C(C(=O)NCC2COc3ccccc3O2)C1c1ccc(F)cc1 (stereo unspecified) | 100
Cc1ccc(C(C)C)c(OCC(=O)Nc2cc(-c3nc4ncccc4o3)ccc2Cl)c1 | 108
O=C(NCCc1ccccc1)[C@@H](c1ccccc1)N1Cc2ccccc2C1=O | 104
O=C(CSc1nc(-c2cccs2)cc(C(F)(F)F)n1)NCc1ccncc1 | 92
O=C(NCc1ccco1)c1scc2c1OCCO2 | 100
Cc1cccc(Cn2c(CCNC(=O)C(C)(C)C)nc3ccccc32)c1 | 98
Cc1cc(-c2ccc(Cl)s2)nc(-n2cccc2)n1 | 124
O=C(CNC(=O)OCc1ccccc1)ON1C(=O)CCC1=O | 102
COc1ccc(C(=O)c2ccccc2)cc1 | 99
O=C(NC(=O)c1ccccc1Cl)Nc1ccc2c(c1)S(=O)(=O)C=C2 | 105
COc1ccc2c(c1)-c1nc(NC(=O)c3ccccc3Br)sc1CC2 | 100
Cn1cnnc1SC(C(=O)Nc1cc(Cl)cc(Cl)c1)c1ccccc1 (stereo unspecified) | 95
CC(=O)N1N=C(c2ccccc2)OC1c1cccnc1 (stereo unspecified) | 100
O=C1CCCCC1OC(=O)C12CC3CC(CC(C3)C1)C2 (stereo unspecified) | 101
Clc1ccc(N=C2CSc3nncn3N2)cc1Cl | 100
CCOC(=O)c1c(CN2CCOCC2)n(-c2ccccc2)c2ccc(O)cc12 | 95
COc1ccc(N=Cc2cn(-c3ccccc3)nc2-c2cccs2)cc1 | 98

Continued.
SMILES | VACV E9 pol inh
O=C(COCC(=O)Nc1ccc(Cl)cc1F)Nc1ccc(Cl)cc1F | 105
Cc1ccc(C(=O)Sc2nnc3ccccn23)cc1 | 99
CCCCc1cc(C(=O)Cc2ccccn2)c(O)cc1O | 96
CC1CN(c2cc(=O)n(-c3ccc(Cl)cc3)c(=O)[nH]2)CC(C)O1 (stereo unspecified) | 101
COc1ccc(OC)c(C(c2c(O)[nH]c(=S)[nH]c2=O)N2CCN(c3ccccc3)CC2)c1 (stereo unspecified) | 91
CC(=O)N1CCC2(CC1)CC(=O)c1cc(OCC(=O)N3CCCC3)ccc1O2 | 102
O=S(=O)(c1ccccc1)c1nnn2c1nc(N1CCCCC1)c1sccc12 | 112
CCOC(=O)CNC1=NCc2ccccc21 | 102
FC(F)(F)c1ccc(Cl)c(Nc2ncnc(-n3cccc3)n2)c1 | 99
COC(=O)c1c(-c2ccccc2)nn(-c2ccc(Cl)cc2)c1OC | 94
CCNc1c(NS(=O)(=O)CC)c(=O)oc2ccccc12 | 88
Oc1ccc(N=Cc2ccccc2)cc1-c1nc2ccccc2s1 | 84*
OC(c1ccccc1)(c1ccccc1)C1CCN(C(=S)Nc2ccccc2)CC1 | 100
COc1cccc(/C=C2\C(=O)NC(=O)N(c3cccc(OC)c3)C2=O)c1 | 100
Nc1n[nH]c(-c2ccc(Br)cc2)n1 | 102
Cc1ccnc(NC(=O)c2cc(-c3ccc(C)c(C)c3)n[nH]2)c1 | 92
CCOC(=O)c1cc(-c2ccccc2)[nH]c1N1CCCC1 | 96
CCC1C[N+]2(C)CCc3cc(OC)c(OC)cc3C2CC1=O (stereo unspecified) | 100
Cc1cc(C)cc(CC(C(=O)O)C(C)C(=O)NCc2ccccc2)c1 (stereo unspecified) | 100
Cc1cc(C)cc(OCC(=O)N2CCCC2)c1 | 105
O=C(Nc1ccc(Cl)cc1)Nc1ccc(N2CCN(c3ncccc3C(F)(F)F)CC2)nc1 | 99
O=S(=O)(/C=C/c1ccccc1)NCc1ccco1 | 101
COC(=O)c1sc(OC)c(C(F)(F)F)c1O | 100
Cc1cc(=O)[nH]c2sc(C(=O)N3c4ccccc4CC3C)c(N)c12 (stereo unspecified) | 100
CC(C)(C)c1nnc(N)s1 | 97
Cn1c(=O)c2sccc2n2c(CCCC(=O)N3CCCCC3)nnc12 | 113
CC(NC(=O)c1ccc(C(C)(C)C)cc1)c1ccccc1 (stereo unspecified) | 93
CSc1nc2[nH]c(=O)cc(O)c2s1 | 100
CNc1ccccc1C(C)(C)c1[nH]ncc1-c1ccc(F)cc1 | 104
Cc1nn(-c2ccccc2)c(C)c1Sc1ccccc1N | 77

Part of the list above in another layout:
Cn1c(=O)c2sccc2n2c(CCCC(=O)N3CCCCC3)nnc12
  VACV E9 pol inh: 113

CC(NC(=O)c1ccc(C(C)(C)C)cc1)c1ccccc1 (stereo unspecified)
  VACV E9 pol inh: 93

(more compounds)
SMILES | VACV E9 pol inh
CC1CCCN(S(=O)(=O)c2ccc3[nH]c(=O)cc(C(=O)NCCCN4CCCCC4C)c3c2)C1 (stereo unspecified) | 102
NC(=O)c1ccc(NC(=O)c2cn(-c3ccccc3)nc2-c2cccs2)cc1 | 104
O=S(=O)(NCC1CCN(S(=O)(=O)c2ccccc2)CC1)c1cccc2nonc12 | 94
CC(C)N(CCC#N)C(=O)c1c[nH]c2ccccc2c1=O | 100
Clc1cc(NCc2ccc3c(c2)OCO3)ccc1N1CCOCC1 | 101
CC1CCc2sc(NC(=O)c3cccs3)c(C#N)c2C1 (stereo unspecified) | 88
CC(C)(C)C(=O)CSc1nc2ccccc2c(=O)n1-c1ccc(F)cc1F | 95
N#Cc1ncc(C(F)(F)F)cc1OCc1ccccc1Cl | 88
CC(=O)Nc1c2c(nn1C(C)(C)C)CSC2 | 100
CCCC/C(O)=C1/C(=O)CC(C)(C)CC1=Nc1ccccc1OC | 96

Structures shown so far that have a furan ring, fused or not, in the order listed:
SMILES | VACV E9 pol inh
CCc1ccc(NC2=CC(=O)CC(c3ccco3)C2)cc1 (stereo unspecified) | 100
O=C(NCc1ccco1)c1scc2c1OCCO2 | 100
O=S(=O)(/C=C/c1ccccc1)NCc1ccco1 | 101

Carrying on:
SMILES | VACV E9 pol inh
O=C(O)CCC(=O)c1ccc(Cl)s1 | 102
CCC(=O)N1CCc2cc(S(=O)(=O)NCCC(=O)Nc3ccc(Br)cc3C)ccc21 | 99
CCOc1ccc(C2=C(C)SC(=Nc3ccc(Cl)cc3)NN2)cc1 | 98
CCOC(=O)C1=C(CS(=O)(=O)c2ccccc2)NC(=O)NC1c1ccc(SC)cc1 (stereo unspecified) | 93
COc1ccc(-c2nnc(NC(=O)CC(C)C)s2)cc1 | 100
C=CCNC(=O)c1cc2c(=O)c3ccccc3oc2nc1C | 109
Cc1n[nH]c(=O)nc1NCCN(C)C | 101
Cc1cc(-c2nc3ncccc3o2)ccc1NC(=O)C(C)(C)Oc1ccc(Cl)cc1 | 94
COc1ccccc1OCCN1CCN(c2ccccc2)CC1 | 99
CNc1cccc2cccc(OC)c12 | 102
CC1(C(=O)Nc2nc3ccccc3s2)CCCC1 | 96
c1nc(N2CCN3CCCC3C2)c2[nH]cnc2n1 (stereo unspecified) | 95
COc1ccc(OC)c(C2=NOC(C(=O)N3CCCc4ccccc43)C2)c1 (stereo unspecified) | 97
CN(C)C(=O)Oc1nnc(SCCS(=O)(=O)c2ccc(F)cc2)n1-c1ccccc1 | 104
CCOC(=O)c1c(NC(=O)N2CCOc3ccc(Cl)cc32)sc2c1CCCC2 | 100
CCCCN1CN=C(Nc2nc(C)c3ccccc3n2)NC1 | 96
O=C1Nc2ccc(S(=O)(=O)NCCO)c3cccc1c23 | 100
COc1cccc(Oc2ccc(OC)cc2C(=O)NN)c1 | 101
COc1nonc1-n1nnc(C(=O)c2ccccc2)c1C | 100
O=C(NC(=O)c1ccccc1Cl)c1ccccc1O | 98

Some of these compounds in order of SMILES length, highest first.
SMILES | VACV E9 pol inh
COc1ccc(OC)c(C(c2c(O)[nH]c(=S)[nH]c2=O)N2CCN(c3ccccc3)CC2)c1 (stereo unspecified) | 91
COCCN1C(=O)c2ccccc2C(C(=O)NCC2COc3ccccc3O2)C1c1ccc(F)cc1 (stereo unspecified) | 100
Cc1ccc(C(=O)C(OC(=O)c2c(C)cc(=O)oc2C)c2ccccc2)cc1 (stereo unspecified) | 100
CCOC(=O)c1c(NC(=O)N2CCOc3ccc(Cl)cc32)sc2c1CCCC2 | 100
COC(=O)c1c(-c2ccccc2)nn(-c2ccc(Cl)cc2)c1OC | 94
Cn1c(=O)c2sccc2n2c(CCCC(=O)N3CCCCC3)nnc12 | 113
Clc1cc(NCc2ccc3c(c2)OCO3)ccc1N1CCOCC1 | 101
Oc1ccc(N=Cc2ccccc2)cc1-c1nc2ccccc2s1 | 84*
O=C(Oc1ccccc1)Oc1ccc2ccc(=O)oc2c1 | 100
COc1cccc(Oc2ccc(OC)cc2C(=O)NN)c1 | 101
c1nc(N2CCN3CCCC3C2)c2[nH]cnc2n1 (stereo unspecified) | 95
CCSC1=C(C#N)C(=O)NC(CO)S1 (stereo unspecified) | 96

Later entries:
SMILES | VACV E9 pol inh
CCOC(=O)c1ccc(Cl)c(NC(=S)N(C)C)c1 | 97
COc1ccc(NC(=O)CCCn2c(=O)c3sccc3n(Cc3ccccc3)c2=O)cc1 | 100
Fc1ccc(Nc2cccc3nonc23)cc1 | 100
N#Cc1ccc(-c2ccccc2)nc1SCC(=O)c1ccccc1 | 100
COc1cc(OC)cc(C(=O)N=c2sc3cc(C)cc(C)c3n2C)c1 | 101
COC(=O)c1cn(-c2ccccc2)nc1C(=O)c1ccccc1 | 96
CC1=C(C#N)C(c2sc3ccccc3c2Cl)C(C#N)=C(C)N1 | 102
O=C(COC(=O)C1CCCCC1)Nc1ccc(I)cc1 | 105
COc1ccccc1OCC(O)CNCc1ccc2c(c1)OCO2 (stereo unspecified) | 104
CCCCN(c1ccccc1)S(=O)(=O)c1cccc2cccnc12 | 99

Some values from above:
In VACV E9 pol inh, `Cc1ccc(C(=O)Sc2nnc3ccccn23)cc1` is listed with 99
In VACV E9 pol inh, `O=C(CSc1nc(-c2cccs2)cc(C(F)(F)F)n1)NCc1ccncc1` is listed with 92
In VACV E9 pol inh, `CCC(CO)NC(=S)Nc1ccccc1C` (stereo unspecified) is listed with 100
In VACV E9 pol inh, `Cc1ccc2c(c1)c1c3n2CCN(C2CCO2)C3CCC1` (stereo unspecified) is listed with 101

The list continues.
SMILES | VACV E9 pol inh
CSc1cccc(NC(=S)Nc2cc3c(c(N)c2C)C(C)(C)CC3(C)C)c1 | 103
O=C(Nc1ccc2c(c1)nc1n2CCN(c2ccccc2)C1)c1ccccc1 | 95
CCOC(=O)c1cnn(CCOC(=O)c2ccccc2F)c1NC(=O)c1ccccc1F | 103
CO/C1=C\C(C)=C\[C@@H](C)[C@@H](O)[C@H](C)C/C(C)=C/C=C/[C@H](OC)[C@@H]([C@@H](C)[C@@H](O)[C@H](C)[C@H]2C[C@@H](O)[C@H](C)[C@@H](C(C)C)O2)OC1=O | 100
CC(=O)Nc1nc2nc(C)cc(C)n2[n+]1-c1ccccc1 | 95
c1ccc(N=Nc2ccccc2)cc1 | 98
CCN(CC)S(=O)(=O)c1ccc(Cl)nc1 | 98
COc1ccc2c(c1)SC1=NCCS(=O)(=O)N12 | 103
CCc1ccc(S(=O)(=O)Nc2ccc3oc(=O)sc3c2)cc1 | 100
c1ccc(C2(c3ccccc3)OCC(Cn3cncn3)O2)cc1 (stereo unspecified) | 88
O=C1NCCN1CCNS(=O)(=O)c1cc(C(F)(F)F)cc(C(F)(F)F)c1 | 106
CNc1ccccc1C(C)(C)c1ccnn1-c1ccccc1 | 93
CCN(CC)S(=O)(=O)c1ccc(C(=O)NCc2ccc3[nH]c(C)cc3c2)cc1 | 102
Cc1cc(I)ccc1-n1[nH]c(C(F)(F)F)cc1=O | 100
